Tgondii IFNg – T. gondii growth inhibition under IFN-gamma | Toxoplasma gondii growth in IFN-gamma-treated host cells; stronger effect = lower value; reference of the scale not given here | activity change, negative = inhibition, %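 (about 20 µM by stock and volumes)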 | hit rate 3.8% among 69,000 | AID 1259416;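 active means below -70%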;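 further: host cells are HeLa cells infected with Toxoplasma gondii; parasite growth read as luciferase light; one replicate is shown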
The depositor's hits bear a star; i = inactive; & = joins results of further samples. These rows are one share of the data (hit frequency here may not be typical).

SMILES | Tgondii IFNg
C[C@H](O)C#Cc1ccc([C@@H]2[C@H]3CN(C(=O)c4ccc5c(c4)OCO5)CCCCN3[C@H]2CO)cc1 | 8
COCc1nc(NC(C)Cc2ncccc2C)c2cnn(C)c2n1 (stereo not given) | -3
Cc1ccc(C2CC(c3cccs3)=NN2C(=O)c2ccco2)o1 (stereo not given) | -22
CN1CCCC(CCNC(=O)Cn2ccc(=O)c3ccccc32)C1 (stereo not given) | 2
Cc1ccc([N+](=O)[O-])cc1S(=O)(=O)N(C)C | 7&16
CN1C(=O)c2cc(NC(=O)Cc3cccs3)ccc2OC[C@H]2O[C@H](CC(=O)N[C@H]3CCN(Cc4ccccc4)C3)CC[C@@H]21 | 8
O=C(C1CCCCC1)N1[C@@H]2CN(S(=O)(=O)c3ccccc3)c3ccccc3[C@@H]2[C@@H]1CO | -4
CC(C)Cc1cc(CNC(=O)c2cccc3c2NCCC3)no1 | -15
Cn1nnc(C(O)CNCc2ccc(Cl)cc2)n1 (stereo not given) | -7
O=C(c1ccco1)N(CCC(c1ccccc1)c1ccco1)Cc1ccco1 (stereo not given) | -7
Clc1ccc(OCc2noc(/C=C/c3ccccc3)n2)c(Cl)c1 | -40
CCc1ccc(NC(=O)c2nc(Nc3ccccc3)c3ccccc3n2)cc1 | -6
CNC[C@H]1OCCCC[C@H](C)Oc2ccc(NC(=O)Nc3ccc(OC)cc3)cc2C(=O)N([C@H](C)CO)C[C@H]1C | 421
Cc1[nH]c(-c2ccccc2)nc1C(=O)N1C[C@@H]2[C@@H]3CC[C@@H](C3)[C@@H]2C1 | -8
COCCNc1c(C(=O)OC)c(=O)[nH]c2c(Cl)cccc12 | 11
CCC(CC)n1ncc(C)c1NC(=O)CC1=C(c2cccs2)CCC1=O | -2
O=C(/C=C\n1cnc(-c2cc(C(F)(F)F)cc(C(F)(F)F)c2)n1)NNc1cnccn1 | -69
O=C(c1cccs1)N1C[C@H](Oc2cccnc2)[C@@H]2OCCC[C@@H]21 | -3
O=C(Cn1cncn1)N1C[C@H]2CC=CC[C@H]2C1 | 7
COc1ccc(NC(=O)N(C)C[C@H]2OCc3ccccc3-c3ccccc3C(=O)N([C@@H](C)CO)C[C@@H]2C)c(OC)c1 | 7

Already shown: five of the compounds above.
SMILES | Tgondii IFNg
COCCNc1c(C(=O)OC)c(=O)[nH]c2c(Cl)cccc12 | 11
CCC(CC)n1ncc(C)c1NC(=O)CC1=C(c2cccs2)CCC1=O | -2
O=C(/C=C\n1cnc(-c2cc(C(F)(F)F)cc(C(F)(F)F)c2)n1)NNc1cnccn1 | -69
O=C(c1cccs1)N1C[C@H](Oc2cccnc2)[C@@H]2OCCC[C@@H]21 | -3
O=C(Cn1cncn1)N1C[C@H]2CC=CC[C@H]2C1 | 7

The list continues.
SMILES | Tgondii IFNg
COc1ccc2c3c([nH]c2c1)[C@@H](CO)N(C(C)=O)CC31CN(S(=O)(=O)c2cccs2)C1 | -12
Cc1oc(C2CCN(C(=O)NCc3ccccc3)CC2)nc1C(=O)N1CCOCC1 | 36
CC(C)NC(=O)C(C)Oc1ccc(S(=O)(=O)NCc2ccccn2)cc1 (stereo not given) | 34
CC(C)Cc1ccc(CN2CCC(N)(C(=O)O)C2)s1 (stereo not given) | 4
CO[C@@H](CN(C)Cc1ccc2c(c1)OCO2)[C@@H](C)CN(C(=O)c1ccccc1)[C@@H](C)CO | -43
CCOc1ccc(NC(=S)NC(=O)COc2cc(Cl)c(Cl)cc2Cl)cc1 | 203
CCC(=O)Nc1ccc2c(c1)C(=O)N(C)C[C@@H](OC)[C@@H](C)CN(Cc1nccs1)[C@@H](C)CO2 | 48
O=C(CCSc1ccccc1)c1cccs1 | -44
CN(n1cnc2ccccc2c1=O)S(=O)(=O)c1cc(Cl)sc1Cl | -77*
Cc1ccc(C(=O)N2CCC3(CC2)CC(c2ccncc2)C(=O)N3)cc1 (stereo not given) | 2
Cc1noc(NS(=O)(=O)c2cccc3c(N(C)C)cccc23)c1C | 6
C[C@@H]1CN([C@H](C)CO)C(=O)c2cccc(NC(=O)c3cnccn3)c2O[C@H]1CN(C)C(=O)NC1CCCCC1 | 2
C[C@@H]1CN([C@@H](C)CO)C(=O)Cc2cc(N(C)C)ccc2O[C@@H]1CN(C)C(=O)NC1CCCCC1 | 32
CCOCCCNC(=O)c1nc(C)n(C2CCN(C)CC2)c1C | 132
c1ccc(OC[C@@H]2CO[C@@H]3CN(c4cnccn4)C[C@@H]23)cc1 | 5
CN(C)S(=O)(=O)c1ccc2c(c1)cc(C(=O)NCCc1cccs1)n2Cc1ccncc1 | -28
O=C(Nc1cccc(F)c1)C1CN(C(=O)NCc2ccccc2)CC12CCOCC2 (stereo not given) | -8
Cc1cc(C)c(S(=O)(=O)NCCc2sc(-c3cccc(F)c3)nc2C)cc1C | 9
O=C(C[C@@H]1CC[C@@H]2[C@H](COC[C@@H](O)CN2C(=O)c2ccc3c(c2)OCO3)O1)NC1CCC1 | -23
Cc1cnc(C(=O)N2CC[C@@H]3C[C@H](c4nccs4)O[C@H]3C2)cn1 | 2
O=C(Nc1ccc(Br)cc1)N1CCC2(CC1)Nc1cc(F)ccc1-n1cccc12 | i
C[C@@H]1CN([C@@H](C)CO)C(=O)c2ccccc2-c2ccccc2CO[C@@H]1CN(C)Cc1ccc(Oc2ccccc2)cc1 | -65
CCc1ccccc1OCCN(C)C(=O)c1ccc(-n2cnnn2)cc1 | 62
CCn1c(C2CCN(C(=O)c3ccc(C4CCCN4)s3)CC2)n[nH]c1=O (stereo not given) | -3
O=C(NCCc1csc(-c2ccc(F)cc2)n1)c1cccc(F)c1 | -90*
O=C(Nc1cc(F)ccc1F)N1CCCCN2[C@H](CO)[C@H](c3ccc(C4=CCCCC4)cc3)[C@H]2C1 | -58
CN1CCC2(CC1)CN(C(=O)CC1NC(=O)c3ccccc31)CCN2C (stereo not given) | -40
CN(C)c1cccc(C(=O)N2CCC3(CCC(CN)OC3)CC2)c1 (stereo not given) | -5
COc1cccc(CN2CCC3(CCN(C(=O)c4ccoc4)C3)C2=O)c1 (stereo not given) | -1
O=C(Nc1cccc2ccccc12)N1CCOCC1 | 181
Cc1ccc(CNC(=O)c2cn3c(n2)CCCC3)cc1 | 58
C=CCC1(O)C(C)C(c2ccccc2)N(C)C(c2ccccc2)C1C (stereo not given) | -91*
CN(C)c1cc(NCCN2CCCC(C(N)=O)C2)ncn1 (stereo not given) | 4
CC1CCCCN1C1CN(c2ccnc(C(=O)NCc3ccco3)c2)C1 (stereo not given) | -3
Cc1nc(Cn2nc(C3CCNCC3)n(Cc3ccccc3)c2=O)co1 | 2
O=C(NCCO)C(C(=O)NCCO)C1CCS(=O)(=O)C1 (stereo not given) | -56
O=C(c1cncc(NS(=O)(=O)c2ccccc2)c1)N1CCOCC1 | 7
Cc1nonc1C1CCCN1C(=O)CC12CC3CC(CC(C3)C1)C2 (stereo not given) | -5
CCCN(CC)C(=O)c1ccc2onc(-c3csc(-c4cccnc4)n3)c2c1 | -19
O=C(c1ccccc1)N1CCC2(CC1)NC(=O)N(C1CCN(Cc3ccncc3)CC1)C2=O | 7
COC(=O)C[C@H]1C(C)(C)C2(O)OC34CC2C(=O)[C@]1(C)C3CC[C@]1(C)C4=CC(=O)O[C@H]1c1ccoc1 (stereo not given in full) | 2
O=C(c1ccccn1)N1C[C@@H]2[C@H](c3ccccc31)[C@H](CO)N2C(=O)C1CCCCC1 | 6
OC[C@H]1CCN(Cc2cnc(NCc3ccccc3)nc2)C[C@@H]1O | 81
CCC(NC(=O)Cc1nnn(C(C)C)n1)c1ccc(OC)cc1 (stereo not given) | 12
C[C@H](NC(=O)C[C@@H]1C=C[C@@H](NS(=O)(=O)c2cccc(F)c2)[C@H](CO)O1)c1ccccc1 | 0
Cc1cc(=O)c(C(=O)N2CCC3(CCCO3)CC2)c(C)[nH]1 | -11
O=C(c1csnn1)N1CCC2(CC1)CNc1ccccc12 | 215
CC(=O)Nc1ccc(-c2c(-c3ccccc3)ncn2Cc2cccnc2)cc1 | 2
CCOC(=O)c1nc(N2CCN(c3cc(C)ccc3C)CC2)c2ccccc2n1 | -46
CCCC#Cc1ccc([C@H]2[C@@H](CO)N(C(=O)NC(C)C)[C@@H]2CNC(C)=O)cc1 | -33
Carrying on:
SMILES | Tgondii IFNg
CN(C)Cc1nc2c(o1)CN(Cc1cccc(C#N)c1)C2 | -8
Cc1nc(-c2ccc(F)cc2)sc1CCNC(=O)c1ccc(OC(C)C)cc1 | -51
C[C@@H]1CN([C@@H](C)CO)C(=O)c2ccccc2-c2ccccc2CO[C@@H]1CN(C)S(=O)(=O)c1cccc(C#N)c1 | -45
Cc1ccc(CN2CC(C(=O)NCc3cc(C(C)C)on3)CC2=O)cc1 (stereo not given) | 0
COc1ccc(OC)c(NC(=O)c2nc(Nc3ccc(C)cc3)c3ccccc3n2)c1 | -45
Cc1cccc(NC(=O)N2CCN(Cc3nc(-c4cccc(Cl)c4)oc3C)CC2)c1C | 1
CCCCC(=O)N1CCC2(CC1)Nc1ccc(Cl)cc1-n1cccc12 | -108*
COc1ccccc1CN1[C@@H]2c3cccc(=O)n3C[C@H]1[C@H](CO)[C@H]2C(=O)N1CCc2ccccc2C1 | 4
CCOC(=O)[C@@]12CC=CCN(C(=O)Cn3c(C)nc4ccccc43)[C@@H]1CCC2 | -58
CC1CCCCN1S(=O)(=O)c1ccc2c(c1)CCC(=O)N2CC(=O)N1CCc2ccccc21 (stereo not given) | 9
COCCN1C(=O)CCc2cc(NC(=O)c3cc(Cl)ccc3OC)ccc21 | -25
CSc1ccc2c(C)cc(N3CCC(CCC(N)=O)CC3)nc2c1 | -5
C=CCNC(N)=S | 18
Oc1c(Cl)cc(Cl)c2cccnc12 | -83*
Cc1cc(C)n2ncc(CN3CCN(c4ncccc4C)CC3)c2n1 | 2
CNC(=O)c1ccc(-c2nc(CN3CCN(C(=O)Nc4ccc5c(c4)OCO5)CC3)c(C)o2)cc1 | 140
O=C1C[C@H]2CC[C@@H](CN1)N2c1ccc(C(=O)N2CCCCC2)cn1 | 0
CCc1[nH]c2ccc(CNC(=O)COc3ccccc3O)cc2c1C | 18
O=C(C[C@H]1C=C[C@H](NS(=O)(=O)c2ccc(F)cc2)[C@@H](CO)O1)N1CCc2ccccc2C1 | -22
CN(Cc1sc2ccccc2c1Cl)C(=O)C1CC2(CCNCC2)CN1 (stereo not given) | -12
CCC(CC)C(=O)N1CCC2(C1)CN(c1cccc(F)c1)C(=O)CN2C (stereo not given) | 16
CC(=O)Nc1ccc(C(=O)N2CCN3CCN(C)C(=O)C3C2)c(Cl)c1 (stereo not given) | 14
COc1ccccc1CNC(=O)c1cncnc1CC1CCN(C(=O)c2ccccc2)CC1 | 4
COc1cc(Cl)c(CN2C[C@H]3C[C@H](O)[C@H](O)C[C@H]3C2)c(Cl)c1OC | 4
Cc1oc(-c2ccc(NC(=O)c3ccccc3C(F)(F)F)cc2)nc1Cn1cccn1 | -46
COC(=O)c1cc(=O)n2ccccc2c1C#N | 43
O=C1C(Cc2ccccc2)NC(=S)N1Cc1ccccc1 (stereo not given) | -7
O=C1CCCN1CC1CCN(C(=O)c2ccc(N3CCOCC3)nc2)CC1 | 102
CC(=O)O[C@H]1CC[C@@]2(C)C(C[C@@H](OC(C)=O)[C@]3(C)C2CC[C@@]2(C)[C@H](c4ccoc4)OC(=O)[C@H]4O[C@]423)C1(C)C (stereo not given in full) | -57
Cc1ccc(NC(=O)c2sc3cc(C(C)(C)C)sc3c2C)cc1 | -67

Ordered by SMILES length (ascending): some entries from above.
SMILES | Tgondii IFNg
O=C1CCCN1CC1CCN(C(=O)c2ccc(N3CCOCC3)nc2)CC1 | 102
CCCN(CC)C(=O)c1ccc2onc(-c3csc(-c4cccnc4)n3)c2c1 | -19
CCCC#Cc1ccc([C@H]2[C@@H](CO)N(C(=O)NC(C)C)[C@@H]2CNC(C)=O)cc1 | -33
Cc1[nH]c(-c2ccccc2)nc1C(=O)N1C[C@@H]2[C@@H]3CC[C@@H](C3)[C@@H]2C1 | -8

(list continues)
SMILES | Tgondii IFNg
CC1=C(C(=O)NCCCN2CCOCC2)C2(CCN(S(=O)(=O)c3cccs3)CC2)OC1=O | 58
Cc1ccc(Nc2nc(-c3nnc(-c4ccc(F)cc4)o3)nc3ccccc23)cc1C | -5
CNS(=O)(=O)c1ccc(CN(C)CCOc2ccc(C)cc2C)cc1 | 44
O=C(CCO)N1CC2CC1C[C@@H]2Oc1cccnc1 (stereo not given in full) | 28
Cn1ccnc1-c1cnc(-c2ccncc2)nc1-c1ccc(Cl)cc1 | -61
COc1ccc(-c2nc3c(s2)CN(S(=O)(=O)c2ccc(C(C)(C)C)cc2)CC3)cc1 | -1
C/C=C/c1ccccc1[C@H]1[C@@H](CO)N(C(=O)NC2CCCCC2)[C@H]1C#N | -23
CNC[C@H]1Oc2ccc(NS(=O)(=O)c3ccc(OC)cc3)cc2C(=O)N([C@H](C)CO)C[C@H]1C | -54
CN(C)c1nc2c(c(N3CCn4cncc4C3)n1)CCCC2 | 51
COc1ccccc1-n1nnc(C(=O)N(C)Cc2nonc2C)c1C | -7
CC(=O)N1CCOC(Cc2cccc(C(F)(F)F)c2)C1 (stereo not given) | -3
COc1ccccc1-c1nc(C)c2c(C)c(C#N)sc2n1 | 7
CCc1ccc(-c2noc(-c3c(O)c4ccc(F)cc4[nH]c3=O)n2)cc1 | 73
CC(C)NS(=O)(=O)c1ccc(OCC(=O)Nc2cccc(F)c2)cc1 | 28
CCN1CCC2(CC1)OC(=O)C(C)=C2C(=O)NCCc1ccccc1 | 71
CCCn1cnnc1CN1CC(C(=O)O)CC1=O (stereo not given) | 5
CCOc1ccccc1-c1nc(Cn2ccn3nc(-c4ccc(OC)c(OC)c4)cc3c2=O)c(C)o1 | 101

Laid out differently: results already given
CCN1CCC2(CC1)OC(=O)C(C)=C2C(=O)NCCc1ccccc1
- Tgondii IFNg: 71

CC(=O)N1CCOC(Cc2cccc(C(F)(F)F)c2)C1 (stereo not given)
- Tgondii IFNg: -3

High-throughput results (PubChem BioAssay)
